# High-throughput results: PubChem BioAssay, National Center for Advancing Translational Sciences (NCATS)
# VDR inh: Inhibitors of the vitamin D receptor (VDR): qHTS; Vitamin D3 receptor (Homo sapiens), P11473; VDR-SRC2-3 peptide fluorescence polarization, 2 h; Potency, µM, inactives show max response, negative = inhibition, hits mostly inhibitors; 400,000 tested, 0.93% active; active means well fitted inhibition curve with a large enough effect; inconclusive means small, poorly fitted or top-dose-only effect, or another doubt; inactive means no such curve, though single readings can be large or run the other way; further: series mostly up to about 120 µM
# Target sequence (P11473 whole entry, looked up): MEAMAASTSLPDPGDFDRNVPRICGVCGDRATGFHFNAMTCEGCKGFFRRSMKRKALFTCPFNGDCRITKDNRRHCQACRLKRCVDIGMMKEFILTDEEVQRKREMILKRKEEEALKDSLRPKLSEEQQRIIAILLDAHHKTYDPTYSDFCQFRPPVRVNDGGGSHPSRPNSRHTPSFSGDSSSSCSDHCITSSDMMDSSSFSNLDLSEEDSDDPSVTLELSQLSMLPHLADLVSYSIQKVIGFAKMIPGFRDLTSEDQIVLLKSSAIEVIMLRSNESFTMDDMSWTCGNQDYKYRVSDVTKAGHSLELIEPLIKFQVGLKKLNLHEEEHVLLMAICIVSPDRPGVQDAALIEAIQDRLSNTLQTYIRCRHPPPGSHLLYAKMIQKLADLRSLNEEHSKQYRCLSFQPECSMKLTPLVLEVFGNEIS
#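 Signal is fluorescence polarization, reporting how far test compounds block the interaction of VDR with the SRC2-3 coregulator peptide after a 2 h room-temperature incubation.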
# An asterisk follows results filed as active; ? = inconclusive; & = joins results of further samples. On the % scale 0 is the no-effect control and ±100 the full control effect; potency means the concentration at half of the fitted maximal effect. A portion of the library, so the mix of outcomes need not match the whole.
Structure	VDR inh
COc1ccc(NC(=O)CN2CCC(C(=O)c3ccc(C)cc3)CC2)c(OC)c1	1.7%
CCOC(=O)C1CCCN(C(=S)Nc2ccc(C)cc2C)C1 (stereo not drawn)	-14.6%
CC1CCCN(C(=O)COC(=O)C2CCN(S(=O)(=O)c3ccc(Cl)c(C(F)(F)F)c3)CC2)C1 (stereo not drawn)	-3.9%
COc1cc2c(Nc3ccc(NC(=O)c4ccccc4)cc3)ncnc2cc1OCCCN1CCOCC1	4.5%
O=C(c1cc(S(=O)(=O)N2CCOCC2)ccc1F)N1CCCc2ccccc21	-6.2%
Cc1noc(C)c1C(=O)N(CC(=O)Nc1ccc(Cl)c(C(F)(F)F)c1)Cc1ccco1	27.5%
Cc1ccc2c(C)c(C(=O)N(C)C(C)c3ccncn3)oc2c1C (stereo not drawn)	3.3%
O=C(COC(=O)C1CCN(S(=O)(=O)c2cccs2)CC1)Nc1ccc(F)c(F)c1F	?
COc1ccc(/C=C2/S/C(=N/N=C3\CC4CCC3(C)C4(C)C)NC2=O)cc1 (stereo not drawn)	-0.1%
COC(=O)c1ccc(C(=O)OC)c(NC(=O)CSc2n[nH]c(N)n2)c1	1.8%

# Brought forward from above: seven compounds, followed by the next part.
Structure	VDR inh
COc1cc2c(Nc3ccc(NC(=O)c4ccccc4)cc3)ncnc2cc1OCCCN1CCOCC1	4.5%
O=C(c1cc(S(=O)(=O)N2CCOCC2)ccc1F)N1CCCc2ccccc21	-6.2%
Cc1noc(C)c1C(=O)N(CC(=O)Nc1ccc(Cl)c(C(F)(F)F)c1)Cc1ccco1	27.5%
Cc1ccc2c(C)c(C(=O)N(C)C(C)c3ccncn3)oc2c1C (stereo not drawn)	3.3%
O=C(COC(=O)C1CCN(S(=O)(=O)c2cccs2)CC1)Nc1ccc(F)c(F)c1F	?
COc1ccc(/C=C2/S/C(=N/N=C3\CC4CCC3(C)C4(C)C)NC2=O)cc1 (stereo not drawn)	-0.1%
COC(=O)c1ccc(C(=O)OC)c(NC(=O)CSc2n[nH]c(N)n2)c1	1.8%
CC(=O)Nc1ccc(NC(=O)COc2ccc(S(=O)(=O)N3CCCC3)cc2)cc1	4.4%
COc1ccc(Cl)cc1NC(=O)CCCS(=O)(=O)c1nc(-c2ccc(OC)c(OC)c2)cc(C(F)(F)F)n1	?
COc1ccc(CNc2ncc(-c3ccccc3)n2C)c2ccccc12	6.4%
O=C(COC(=O)C1Cc2ccccc2CN1C(=O)c1ccccc1)Nc1ccc(SC(F)F)cc1 (stereo not drawn)	-13.8%
O=C(CSc1nnc(-c2ccncc2)n1C1CCCCC1)Nc1cccc(O)c1	22.0%
Cc1cccc(COC(=O)CCCNC(=O)c2ccc(Cl)cc2)c1	0.2%
C[N+]1(C2CCC3CCCC2C3O)CCCC1 (stereo not drawn)	11.7%
O=S(=O)(c1nccs1)N1CCN(c2nc(-c3cccs3)nc3ccccc23)CC1	-14.7%
COCCCN(C(=O)c1ccccc1)c1nc(-c2ccc(OC)cc2)cs1	-22.5%
O=C(NCc1nnnn1-c1cccc(F)c1)c1ccc(S(=O)(=O)N2CCOCC2)cc1	17.1%
N#Cc1sc2nc(C3CC3)cc(-c3ccccc3)c2c1N	-3.2%
COc1ccccc1C(=O)Nc1nnc(S(=O)(=O)N2CCC(C)CC2)s1	7.1%
COC(=O)c1cc2oc(C)cc2n1CC(=O)Nc1ccc(C(C)C)cc1	-0.1%
CC1CCN(C(=O)CCNC(=O)c2ccccc2)CC1	-5.7%
CC(=O)n1cc([C@@H]2C=C(C(=O)N3CCN(Cc4ccccc4)CC3)O[C@H](OCc3ccc(CO)cc3)C2)c2ccccc21	-6.7%
COc1cc2ncnc(Nc3cccc(Br)c3)c2cc1OC	-15.2%
CCCn1cc(SCC(N)=O)c2ccccc21	8.0%
CCCCN(CC)CCCNC(=O)c1cn(CC(C)C)c(=O)c2c1c1ccccc1n2C	4.6%&-8.3%
COc1ccc(CNc2ncncc2-c2ccc(C(=O)N(C)C)cc2)c(OC)c1	-6.0%
CCOC(=O)C1(CC2CCCCO2)CCN(C(=O)Nc2ccccc2)CC1 (stereo not drawn)	-8.6%
COc1cc(/C=N/NS(=O)(=O)c2ccc(C)cc2)ccc1OCc1ccc(C(=O)O)cc1	-4.2%
CC(C)(C)/C(COc1ccccc1[N+](=O)[O-])=N/O	0.0%
O=C(CCNC(=O)c1ccc(Br)o1)NC1CCCC1	7.1%
Cc1ccc(O)c(-c2cc(C(=O)Nc3ccc(S(=O)(=O)Nc4nc(C)cc(C)n4)cc3)[nH]n2)c1	-7.8%
CCOC(=O)N1CCC(Nc2c([N+](=O)[O-])cc(C(=O)O)cc2[N+](=O)[O-])CC1	-3.9%
O=C(c1ccccc1)N1CCN(S(=O)(=O)N2CCCCC2)CC1	6.0%
CNS(=O)(=O)c1cn(CC(=O)Nc2ccc(C)c(N(C)C)c2)cc1S(=O)(=O)NC	-2.8%
COc1c2c(c(C(=O)/C=C/C(C)=C/c3ccccc3)c3c1OCO3)CCN(C)C2	44.7µM*
COc1ccc(OC)c(CCNC(=O)c2cc3c(-c4ccccc4F)nn(C)c3s2)c1	-2.4%
CC(NC(=O)C(Cc1ccccc1)NC(=O)c1ccccc1)C(=O)O (stereo not drawn)	-1.1%
COc1ccccc1N1CCN(S(=O)(=O)c2c(C)sc3ncn(CC(=O)Nc4ccc(C(C)C)cc4)c(=O)c23)CC1	-10.8%
CCOC(=O)c1cc(-c2ccccc2)n(CCC(=O)Nc2ccccc2CC)c1C	3.1%
O=C(NCCOc1ccc(Cl)cc1)c1ccc2ccccc2n1	3.1%
COc1c(O)ccc2cnn(-c3ccccc3C)c(=O)c12	5.0%
Cc1ccc(-c2nc(CS(=O)CC(=O)NCc3ccccc3)c(C)o2)cc1 (stereo not drawn)	-10.4%
CCOC(=O)[C@@H]1[C@H]2COc3ccccc3[C@H]2N2C(=O)N(c3ccc(OC)cc3)C(=O)[C@]12C	2.6%
Nn1c(SCC(=O)Nc2ccccc2Br)nnc1-c1ccco1	1.4%
CCCNc1c(NS(=O)(=O)c2cccc(C#N)c2)c(=O)oc2ccccc12	-9.1%
O=C(CC1C(=O)N(c2ccc(F)cc2)C(=O)N1Cc1ccccn1)Nc1ccccc1 (stereo not drawn)	1.1%
Cn1c(CC(=O)NNC(=O)c2cccnc2)nc2ccccc21	23.1%
COC(=O)C1CN(C(=O)c2cccc(OC(F)F)c2)c2ccccc2O1 (stereo not drawn)	0.2%
COc1ccc(-c2nc3sc(CCNC(=O)C(=O)Nc4ccc(C)c(C)c4)c(C)n3n2)cc1	4.4%
CC(C)CCNc1nc2c(cc1C#N)COC(C)(C)C2	9.7%
COc1ccc(CCNC(=O)CCn2c(=O)c3cccn3c3ccc(F)cc32)c(OC)c1OC	-9.3%&2.5%
COc1ccc(N2CCN(C(=O)c3[nH]c4ccc(OC)cc4c3C)CC2)cc1	-21.3%
NS(=O)(=O)c1ccc(F)c(C(=O)O)c1	-0.7%
CCCC(C)C(=O)Nc1ccc(S(=O)(=O)N2CCCC2)cc1 (stereo not drawn)	-16.1%
CC(C)CNC(=O)c1ccccc1NC(=O)c1ccccc1N(C)S(=O)(=O)c1ccccc1	0.4%
Cc1ccc(NC(=O)C2=NNC(=O)CC2)cc1S(=O)(=O)Nc1ccc(SC(F)F)cc1	?
C1CCC(Nc2nnnn2C2CCCCC2)CC1	17.9%

# Additional results follow.
Structure	VDR inh
COC(=O)c1sc(N2CCCCC2)c(C#N)c1N	3.6%
O=C(O)CSc1c2c(nc3cc(C(=O)NCCN4CCOCC4)ccc13)CCC2	-9.5%
O=C1C2CCCN2C(=O)N1CCCCN1CCN(c2cccc(Cl)c2)CC1 (stereo not drawn)	?
O=C(c1ccc2c(c1)N(Cc1cccc(F)c1)C(=O)c1ccccc1S2)N1CCCC1	5.4%
CCCn1c2ccccc2c2cnn(CC(=O)Nc3cc(C)c(Cl)cc3OC)c(=O)c21	-10.0%
Cc1scc(C(=O)N2CCN(S(C)(=O)=O)CC2)c1-c1ccccc1	-1.8%
CC(C)(C)NC(=O)Cn1nnnc1-c1nonc1N	16.5%
Cc1cccc(N2CCN(C(=O)c3nn(C)c4c3CSc3ccccc3-4)CC2C)c1 (stereo not drawn)	19.5%
CN(C(=O)C1CCCO1)C1CCS(=O)(=O)C1 (stereo not drawn)	9.9%
CCOc1ccc(Nc2nc(NCC3CCCO3)c3ccccc3n2)cc1 (stereo not drawn)	-2.7%
C/C(N[C@@H]1CSCC1O)=C1/C(=O)CC2[C@@H]1C2(C)C (stereo partly drawn)	-4.1%
Cc1cc(C)c2c(CN3CCC(C)CC3)cc(=O)oc2c1C	8.0%
CC1(C)NC(=O)N(CC(=O)NNC(=O)c2ccccc2F)C1=O	6.6%
CC(C)=CCC/C(C)=C/CNC(=O)C[C@H]1C[C@H](C(=O)N2CCCCC2)[C@@]2(CCc3ccccc3)c3[nH]c4cc(-c5ccco5)ccc4c3CCN2C1=O	?
CCOC(=O)C1=CNS(=O)(=O)NC1c1ccc(C[C@H](NC(=O)CNC(=O)CCc2ccccc2)C(N)=O)cc1 (stereo partly drawn)	-10.3%
Cn1cc(CN2CCC(C(=O)Nc3cccc(-c4cccc(F)c4)c3)CC2)cn1	-2.2%
COCCn1c(C)cc2c(c1=O)C(c1ccco1)C(C#N)=C(N)O2 (stereo not drawn)	-0.8%
CC(C)CC(CSc1ccc(Br)cc1)N1CCN(C)CCC1=O (stereo not drawn)	-20.5%
O=C(NCCCn1ccnc1)c1cc(-c2cccs2)on1	-5.9%
CCN(CC)c1ccc(S(=O)(=O)N2CCOCC2)cc1NC(=O)Nc1ccccc1	-14.2%
Cc1cccc(C(=O)Oc2ccc(/C=N/NC(=O)c3ccccc3O)cc2)c1	-22.6%
CCC(C)(C)NC(=O)C(c1cccn1C)N(C(=O)Cn1nnc2ccccc21)c1ccc(OC)cc1OC (stereo not drawn)	6.2%
CN(CP(=O)(O)CN(C)S(C)(=O)=O)S(C)(=O)=O	4.3%
c1ccc(COc2ccc(CNCc3cccs3)cc2)cc1	18.9%
ClCc1cc2ccccc2nc1Cl	-3.4%
C[C@@H](NC(=O)c1nc[nH]c1C(=O)N[C@@H](CCCCNC(=O)OC(C)(C)C)C(=O)OC(C)(C)C)c1ccccc1	7.4%
CC1CC(C)CN(CCCNC(=O)c2cc3c(s2)-c2ccccc2OC3)C1 (stereo not drawn)	3.8%
CCCCn1c(CNC(=O)c2ccc(OC)cc2)nnc1SCC(=O)Nc1ccc(OC)cc1	6.4%
CCCCN(CCCNC(=O)c1cc(Nc2ccc(OC)c(OC)c2)nc2ccccc12)Cc1ccccc1	-8.6%
CN(C)c1ccc(NC(=O)CN2C(=O)CC(c3ccccc3)=Nc3ccccc32)cc1	-9.5%

# Arranged by the number under VDR inh (high to low): some entries from above.
Structure	VDR inh
CNS(=O)(=O)c1cn(CC(=O)Nc2ccc(C)c(N(C)C)c2)cc1S(=O)(=O)NC	-2.8%
COc1cc2ncnc(Nc3cccc(Br)c3)c2cc1OC	-15.2%
COCCCN(C(=O)c1ccccc1)c1nc(-c2ccc(OC)cc2)cs1	-22.5%

# Remaining list, next part:
Structure	VDR inh
CN(CCO)c1cnccn1	-3.3%
CCN1/C(=C/C=C/c2oc3ccc4ccccc4c3[n+]2CC)Oc2ccc3ccccc3c21	?
CN(C)C(=O)CSc1nnc(Cc2ccc3c(c2)OCO3)o1	-8.0%
CCOC(=O)C(C)/C(C)=N/NC(=O)CCC(=O)Nc1cc(C)ccc1C (stereo not drawn)	10.7%
CSc1ncc(C(=O)NCc2ccccc2)c(-c2ccccc2)n1	-2.0%
COC(=O)c1nnn(-c2nonc2N)c1CSCCO	-4.5%
CC1(OC(=O)C2CCCC2)C(=O)C=C2C=C3CCCCN3C=C2C1=O (stereo not drawn)	6.5%
CCOC(=O)CSc1nnc(-c2ccc(S(=O)(=O)N3CCOCC3)cc2)n1-c1ccccc1	8.0%
CCOC(=O)N1CCN(S(=O)(=O)c2ccc(C(=O)N(CCCN(C)C)c3nc4ccc(OC)cc4s3)cc2)CC1	-0.4%
FC(F)(F)c1cc(-c2ccccc2)nc2ncnn12	-5.8%
COC(=O)c1c(C(=O)OC)c(-c2cccc(F)c2)n2c1CS(=O)C2 (stereo not drawn)	1.7%
COc1ccc(S(=O)(=O)N(C)C[C@H]2Oc3ccc(NC(=O)Cc4ccccc4)cc3C(=O)N([C@H](C)CO)C[C@@H]2C)cc1	-10.7%
O=C(COC(=O)[C@@H]1CCCN1S(=O)(=O)c1ccc(Cl)cc1)NC1CCS(=O)(=O)C1 (stereo partly drawn)	-1.6%
Cc1ccc(Cn2c(=O)n(Cc3ccco3)c(=O)c3oc4ccccc4c32)cc1	9.2%
CCc1ccc(-n2nc(C)c3c(C)cc(=O)n(CC(=O)N4CCCc5ccccc54)c32)cc1	12.0%
Cc1noc(NS(=O)(=O)c2ccc(NC(=O)CSc3nnc(-c4ccccc4)n3C3CCCCC3)cc2)c1C	-6.1%
CCC1SC2=NC(C)=C(C(=O)OCC(C)C)C(/C=C/c3ccccc3OC)N2C1=O (stereo not drawn)	10.3%
CCCc1cc2c(cc1NC(=O)c1ccccc1F)OCO2	-1.0%
CC1CCN(C(=O)c2cc(S(=O)(=O)N3CCOCC3)ccc2N2CCCC2)CC1	-8.2%
CCCn1c(N)c(C(=O)CSc2n[nH]c(-c3ccc(C)cc3)n2)c(=O)[nH]c1=O	9.0%
CCN(Cc1cn2cccnc2n1)C1CCCCC1	3.2%
CCOC(=O)CC1COCCN1C(=O)CCc1nnc(-c2ccsc2)o1 (stereo not drawn)	7.9%
